# From PubChem BioAssay
# NPYLR7 agonist: mosquito NPYLR7 agonism; HEK293T NPYLR7/Galpha15, GCaMP6s calcium fluorescence; activation, % at 10 µM; 270,000 tested, 0.15% active; in the data active = activation above about 40%;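 note: 0% = vehicle and 100% = reference agonist at the receptor; some compounds past the cut are filed as inactive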
# NPYLR7 agonist max-min: second read-out of NPYLR7 agonist, no call of its own (marks repeat the call); activation, %; measured here: Max-Min RFU normalised activation; some inactives read as strong as hits;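 span of the calcium signal over five minutes; 0% = vehicle and 100% = native peptide agonist; compound fluorescence can raise it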
# Starred values were filed as active, the others as inactive; & = joins results of further samples. Some of the compounds tested. The share of hits here may be higher or lower than overall.
Compound,NPYLR7 agonist,NPYLR7 agonist max-min
CC1=CC(=O)N(CC2COc3ccccc3O2)C1=O (stereo unspecified),-2,-6
O=C1CC(N2CCSCC2)C(=O)N1c1ccc(I)cc1 (stereo unspecified),-5,-9
Cc1ccc(NC(=O)CSC(F)(F)F)c2[nH]ncc12,7,4
C=CCOC(=O)c1sc(N2C(=O)C(O)=C(C(=O)c3cccs3)C2c2ccccc2OC)nc1C (stereo unspecified),7,6
O=C(NCc1ccccn1)C(Cc1ccccc1)NC(=O)C1CC(c2ccc(F)cc2)=NO1 (stereo unspecified),-2,10
Nc1nnc(SCC(=O)Nc2nnc(-c3cccc([N+](=O)[O-])c3)s2)s1,-5,-12
CCCN(C)c1cc(CC)nc(SCc2ccc(C(=O)NCCN3CCOCC3)cc2)n1,3,6
O=C(CC1CCS(=O)(=O)C1)NCc1cccnc1Oc1ccccc1F (stereo unspecified),4,2

# Next section:
Compound,NPYLR7 agonist,NPYLR7 agonist max-min
CCCN(CC(=O)Nc1ccc(Cl)cc1Cl)C(=O)c1ccc2c(c1)OCCCO2,3,1
CCCc1ccc(-c2ccc(C(=O)N3CCCC(O)(CO)CC3)cc2)cc1 (stereo unspecified),6,4
COCCCN(Cc1ccsc1)Cc1ccc(C(O)(c2cccc(F)c2)c2cccc(F)c2)o1,-8,-1
CCOC(=O)c1c(CN2CCCC2)n(C2CCCCC2)c2cc(Br)c(O)cc12,-1,-2
CCCOc1ccc(CSc2nncn2N)cc1,1,0
CC(=O)O[C@H]1[C@H](NC(=O)c2cc3ccccc3c(=O)o2)[C@H]2O[C@@H]1c1ccccc12,0,11
Cc1ccc(CN2CCN(Cc3cccnc3N)CC2=O)cc1,7,-3
Cc1ccc(Cn2nnc3c(SCC(=O)c4ccccc4)ncnc32)cc1,17,19

# Overlap with the part before: 2 compounds, then new ones.
Compound,NPYLR7 agonist,NPYLR7 agonist max-min
Cc1ccc(CN2CCN(Cc3cccnc3N)CC2=O)cc1,7,-3
Cc1ccc(Cn2nnc3c(SCC(=O)c4ccccc4)ncnc32)cc1,17,19
Cc1ccc(Cl)cc1NC(=O)Cn1nc(-c2ccccc2)c2sc(N3CCOCC3)nc2c1=O,-3,-8
Cc1ccc(-c2cc(C)n3nc(N4CCOCC4)c(C#N)c3n2)cc1,0,-1
COc1ccc(-c2nc3ccc(C)cn3c2NC(=O)c2ccc(Br)cc2)cc1OC,-3,4
Cc1ccc(NS(=O)(=O)c2c(C)c(C)c(C)c(C)c2C)c(C)c1O,-5,-7
COc1cccc(CN2CCN(c3nc4ccccc4n3CCO)CC2)c1F,10,8
CC(=O)N1CCC(C(=O)NCc2cccnc2N(C)C2CCCCC2)CC1,7,4
CCCCC(CC)C(=O)Nc1ccc(N2CCCC2)c(C(=O)NC(C)c2ccccc2)c1 (stereo unspecified),6,13
CCc1ccccc1NC(=O)CN(c1ccc(C)cc1)S(=O)(=O)c1ccc(OC)c(OC)c1,-23,-14

# New compounds follow.
Compound,NPYLR7 agonist,NPYLR7 agonist max-min
Cc1cnccc1N1CCCN(Cc2ccc(C#CC(C)(C)O)cc2)CC1,-1,-2
CCN1CCN(c2cc(C)nc3c(-c4ccccc4OC)c(C)nn23)CC1,2,10
O=C(CCCN1C(=O)c2cccc3cccc(c23)C1=O)NCCc1ccccc1,9,4
CCOC(=O)CCCCCC(=O)Nc1nc(-c2onc3c2CCCC3)c(C)s1,3,-1
CCOC(=O)c1c(NC(=O)CCCCCN2C(=O)c3ccccc3C2=O)sc(C)c1C,-3,-11
OCC(O)C(O)C(O)CO (stereo unspecified),-8,-11
CCS(=O)(=O)Oc1cccc(CN(C(=O)c2cc(OC)cc(OC)c2)C(C)C)c1,-16,-9
CCOc1ccccc1N1CCN(C(=O)c2nccnc2N)CC1,2,-1

# New compounds follow:
Compound,NPYLR7 agonist,NPYLR7 agonist max-min
Cc1cccc(-c2n[nH]c(=S)n2CC(=O)N2CCC(CCc3ccccc3)CC2)c1,4,2
Cc1nn(C)c(C)c1CC(=O)NC1(c2ccc(Cl)cc2)CCC1,-1,0
S=c1[nH]nc(-c2cccnc2)n1-c1cccc2ccccc12,-11,-17
CCCCOc1ccc(C(=O)N2CCN(C(=O)CCCCSc3nnc(-c4ccco4)n3-c3ccc(OC)cc3)CC2C)cc1 (stereo unspecified),-2,6
CCCCCC(=O)Nc1c(-c2ccc(Cl)cc2)nc2cc(C)ccn12,-2,4
CCCNC(=O)C(NS(=O)(=O)c1ccccc1)C1CCNCC1 (stereo unspecified),34,37
Cc1ccccc1Oc1cc(N2CCCC2)ncn1,7,10
O=C(C=Cc1ccco1)N(Cc1ccccc1)Cc1nc2ccccc2c(=O)[nH]1,5,2

# (more compounds)
Compound,NPYLR7 agonist,NPYLR7 agonist max-min
Cc1ccc(-c2ccc(=O)n(CCCNS(C)(=O)=O)n2)cc1,0,-1
COc1ccc(CN(CCc2c[nH]c3ccccc23)C(=O)CN(C(=O)c2ccc(C(F)(F)F)cc2)C(C)C)cc1OC,-5,3
Cc1ccc(CCC(=O)Nc2ccc3c(c2)CN(C(=O)C2=NN(C)C(=O)CC2)CC3)cc1,6&-8,1&-9
O=C(c1ccco1)N1CCCC(OCc2cccc(C(F)(F)F)c2)C1 (stereo unspecified),-5,-3
CCOc1ccc2nc(N3CCc4ccccc4C3)sc2c1,5,0
CC(=O)N[C@@H](CC(C)C)C(=O)O,-10&0,-15&-6
Cn1c(C2CCCN(S(C)(=O)=O)C2)nn(CC(=O)NC2CCCCC2)c1=O (stereo unspecified),-5,1
COc1ccc(CCN(Cc2ccc(C)s2)C(=O)CN(C(=O)Nc2cccc(Br)c2)C(C)C)cc1OC,-2,-10

# (further entries)
Compound,NPYLR7 agonist,NPYLR7 agonist max-min
COCCN(CCOC)C(=O)Nc1cc(OC)ccc1OC,-3,-11
COc1ccc(N2CCSC2C(=O)NN)cc1 (stereo unspecified),1,7
N#Cc1cccc(C(=O)N2CCN(C(c3ccccc3)c3ccccc3)CC2)c1,18,7
CCC(C)NC(=O)C(CC)n1nc(C)n2c(cc3sccc32)c1=O (stereo unspecified),-2,-2
O=C(NCc1ccco1)N1CCN(C(c2ccccc2)c2ccc(Br)cc2)CC1 (stereo unspecified),6,5
Cc1nc2c(C(=O)N3CCc4[nH]nc(-c5cccc(F)c5)c4C3)cccc2[nH]1,0,1
COc1ccccc1CN1C(=O)C(C)ON=C1c1ccccc1F (stereo unspecified),-2,-1
C=CCN(CC(=O)Nc1ccccc1C#N)S(=O)(=O)c1c(C)cc(C)cc1C,1,-3

# Continuation.
Compound,NPYLR7 agonist,NPYLR7 agonist max-min
O=C(c1ccccc1Cl)N1CCCC(OCC2CC2)C1 (stereo unspecified),-6,-6
COc1cccc(O)c1CN(Cc1ccsc1)CC1CCCO1 (stereo unspecified),-5,-6
COc1cc(CN2CCN(Cc3cccc4nonc34)CC2CCO)cc(OC)c1 (stereo unspecified),3,-2
COc1cc(-c2nc3ccc(Br)cn3c2NC(C)(C)CC(C)(C)C)ccc1OS(=O)(=O)c1ccc2ccccc2c1,10,15
COc1ccc(CC(=O)NCc2nnnn2-c2ccc(C)c(C)c2)cc1,4,2
C=CCn1c(SCc2ccc(C(=O)O)cc2)nnc1-c1cccc(OC)c1,0,-4
CN(C)S(=O)(=O)c1ccc(-c2csc(N3CCCCC3)n2)cc1,2,1
Cc1ccc(F)c(CC(=O)N2CCOC(COc3cccc(C(F)(F)F)c3)C2)c1F (stereo unspecified),5,-1

# Fetched by structure from the entries so far, seven records:
Compound,NPYLR7 agonist,NPYLR7 agonist max-min
COc1cc(-c2nc3ccc(Br)cn3c2NC(C)(C)CC(C)(C)C)ccc1OS(=O)(=O)c1ccc2ccccc2c1,10,15
COc1ccc(CC(=O)NCc2nnnn2-c2ccc(C)c(C)c2)cc1,4,2
Cc1ccc(F)c(CC(=O)N2CCOC(COc3cccc(C(F)(F)F)c3)C2)c1F (stereo unspecified),5,-1
COc1cc(CN2CCN(Cc3cccc4nonc34)CC2CCO)cc(OC)c1 (stereo unspecified),3,-2
O=C(c1ccccc1Cl)N1CCCC(OCC2CC2)C1 (stereo unspecified),-6,-6
CN(C)S(=O)(=O)c1ccc(-c2csc(N3CCCCC3)n2)cc1,2,1
COc1cccc(O)c1CN(Cc1ccsc1)CC1CCCO1 (stereo unspecified),-5,-6

# Continued:
# Below each compound – NPYLR7 agonist	NPYLR7 agonist max-min
COc1ccccc1C(NC(=O)c1cnc2ccccn2c1=O)c1nccn1C (stereo unspecified)
  0	-1
COCC(=O)N1CCC(=O)N(C2CCCC2)Cc2ccccc21
  -10	-2
O=S(=O)(NC1CCCCC1)c1cccc(C(F)(F)F)c1
  -3	-6
Cc1ccc(C(=O)O)cc1Oc1nc(Cc2ccc(F)cc2)ns1
  11	13
CCOC(=O)c1nn(Cc2ccccn2)c2c1CN(C(C)CC(F)(F)F)CC2 (stereo unspecified)
  -4	-9
N#CC(C#N)C1=Nc2ccccc2CCC1
  2	1
Cc1ccc(C)n1CCN(C(C)C)C(C)C
  -8	-10
NC(COCc1ccccc1)c1csc(Nc2ccccn2)n1 (stereo unspecified)
  8	8
CCC(Sc1n[nH]c(=O)[nH]c1=O)C(=O)OC (stereo unspecified)
  11	6
CCNC(=O)c1ccc(N2CCN(Cc3nccn3C(C)C)CC2)nc1
  -4	1
O=c1cc(CP(=O)(c2ccccc2)c2ccccc2)[nH][nH]1
  1	-1
CC(C)NC(=O)NCCc1ncc(-c2ccccc2)[nH]1
  1	-3
COc1ccc(N2CCN(C(=O)Nc3cccc(Cl)c3)C(C)C2=O)c(OC)c1 (stereo unspecified)
  7	4
COc1ncccc1CN1CCN(c2cncc(C(N)=O)n2)CC1
  5	4
CC1CC(C(F)(F)F)n2nc(C(=O)O)cc2N1 (stereo unspecified)
  0	-2
Cc1nc(-c2cccc(-c3n[nH]c(CCc4ccccc4)n3)c2)no1
  13	1
Cc1noc(C)c1S(=O)(=O)Nc1ccc2c(c1)OCCCO2
  -5	-7
O=S(=O)(c1ccc(F)cc1)N1CCN(c2nc(-c3cccc(Br)c3)nc3ccccc23)CC1
  29	33
CCCN(CC(=O)N(Cc1ccccc1)Cc1cccn1Cc1ccc(F)cc1)C(=O)COc1ccccc1
  -5	6
CC[C@H](C)[C@H](NC1CCN(c2ccc(NC(=O)C3CCCC3)cc2)CC1)C(=O)OC
  2	-2

# (more compounds)
# Below each compound – NPYLR7 agonist	NPYLR7 agonist max-min
CCc1nnc(-c2cc3ccccc3n2Cc2ccccc2F)o1
  4	1
CC1CC1C(=O)N1CCN(C(=O)C2SCCc3ccccc32)CC1 (stereo unspecified)
  -5	-6
CN(C)c1nc(Cl)c(CN2CCCC(CO)(CCc3ccccc3)C2)s1 (stereo unspecified)
  3	3
COCC(C)Nc1ncnc2c1c(-c1ccccc1)cn2-c1ccc(F)cc1 (stereo unspecified)
  -2	-5
CN(C)c1ccc(N)cc1CN(CC1CCCO1)S(C)(=O)=O (stereo unspecified)
  4	3
Cc1c(C(=O)N(C)Cc2cc(-c3ccccc3)no2)oc2c(F)cccc12
  3	-7
O=c1[nH]nc(C2CCN(C/C=C/c3ccco3)CC2)n1Cc1ccccc1
  20	10
O=C(NCC1CCCO1)c1ccc(-c2cc(-c3ccc(N4CCCCC4)cc3)n[nH]2)cc1 (stereo unspecified)
  -5	-9
Cc1nc2ccc(C(=O)N3CC[C@@H](c4sccc4C)[C@H](O)C3)cc2[nH]1
  8	4
Cc1ccc2nc(N3CCC(C(=O)NCCc4cccc(F)c4)CC3)nc(C)c2c1
  -1	-6
CCCCNC(=O)CN(C)c1nc(-c2cccnc2)nc2c1cnn2C
  5	6
CCOCCn1c(=NC(=O)c2ccc(SC)cc2)sc2cc(S(C)(=O)=O)ccc21
  13	10
COC[C@H]1C[C@H]2C[C@@H](OC)[C@H](N3CCN(c4ccncc4)CC3)[C@]2(O)CO1
  1	8
O=C(N1CCCC(O)(CO)CC1)C1(c2ccccc2)CCCCC1 (stereo unspecified)
  -2	-10
Nc1ncc(-c2ccccc2Oc2ccccc2)cc1-c1ccc(O)cc1
  -2	-8
O=C(CN1CCN(C(=O)c2cccs2)CC1)NC(=O)NCc1ccco1
  10	8
COc1cccc(C(=O)c2c(N)c(C(=O)Nc3ccccc3C(F)(F)F)c3ccccn23)c1
  -2	-7
CC(C)(C)N(CC1CCCCC1=O)C(=O)OCc1ccccc1 (stereo unspecified)
  7	4
CCn1c(Cc2ccccc2)nnc1SCc1ccc(C(=O)NC2CC2)cc1
  39	34
O=C(CN(Cc1ccccc1F)C1CC1)Nc1c(Cl)cccc1C(F)(F)F
  -7	-9

# (more compounds)
# Below each compound – NPYLR7 agonist	NPYLR7 agonist max-min
Cc1nc(-c2cccs2)sc1C(=O)N1CCN(CC(=O)N2CCCC2)CC1
  5	4
CCOc1ccc(NS(=O)(=O)c2ccc(S(C)(=O)=O)cc2)cc1OCC
  7	6
CC(C)c1ccc(CC(=O)N2CCC2(C)C(=O)NCc2cccc3ccccc23)cc1 (stereo unspecified)
  -2	-4
Cn1c(=O)[nH]c(=O)c2c1nc(N1CCN(Cc3ccc(F)cc3)CC1)n2Cc1ccccc1
  0	-2
CCCCn1c(C(=O)NCc2cccnc2)cc2c(=O)n(C)c(=O)n(C)c21
  -3	-4
O=C(NN=C1CCCCC1)NC1CCCCC1
  -4	-5
CCOC(=O)c1cc([C@@H](C)CCC=C(C)C)sc1NC(=O)c1ccc(Cl)c(Cl)c1
  4	0
CC=CCn1c(=O)c2c(nc3oc(-c4ccccc4)cn32)n(C)c1=O
  2	0
CC(C)(C)NC(=O)C1CCN(S(=O)(=O)c2ccc3c(c2)CCCC3)CC1
  5	9
Cc1nnc(Nc2ccccc2O)c2ccccc12
  2	2
O=C1C2CCCOC2C1(c1ccccc1)c1ccccc1 (stereo unspecified)
  6	10
Cc1ccc(-n2ccnc2SCc2cc(=O)n3nc(C)sc3n2)c(C)c1
  0	-2
CCn1cc(C(=O)N2CCc3c([nH]c4ccccc34)C2c2ccccc2F)cn1 (stereo unspecified)
  -2	-3
O=C(CCN1C(=O)S/C(=C/c2ccccc2)C1=O)NNC(=O)c1cccnc1
  16	17
COc1ccc(CN(Cc2ccc(F)cc2)CC(O)COCc2ccccc2)cc1 (stereo unspecified)
  32	28
COc1cccc(CNCc2c(C)nn(-c3ccc(F)cc3)c2C)c1
  1	0
